ALR H2O2 inh – inhibitors of human ALR sulfhydryl oxidase, primary screen, biochemical, H2O2 detection, HRP-luminol luminescence, single point | inhibition, % (no concentration beside the values) | purified ALR, DTT oxidation | actives 3.8% (n = 290,000);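 active = mean and each replicate at 75% or more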;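 note: stock transfer was 7.5 nL into about 7.5 µL; 0% = neutral wells and 100% = wells with inactivated enzyme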
Target sequence (P55789 whole entry, looked up): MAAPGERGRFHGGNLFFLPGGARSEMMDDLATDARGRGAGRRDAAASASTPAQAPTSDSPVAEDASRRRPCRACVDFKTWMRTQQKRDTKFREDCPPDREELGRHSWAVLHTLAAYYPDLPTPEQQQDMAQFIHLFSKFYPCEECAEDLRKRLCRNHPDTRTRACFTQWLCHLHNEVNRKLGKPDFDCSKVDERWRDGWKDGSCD
B2AR ag – beta2AR agonists driving receptor internalization, primary screen, cell-based, FAP fluorogen, flow cytometry | Am2.2-beta2AR cells; reference of the scale not given here | response, % (no concentration beside the values) | actives 0.43% (n = 340,000) | AID 504454, 2011;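 active = response above a set limit, near 3 SD of response in nonfluorescent compounds, cut at about 42% in these data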;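 note: stock transfer was 100 nL into about 11 µL; a reference agonist was the positive control; negative values mostly stem from fluorescent compounds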
Target sequence (P07550 whole entry, looked up): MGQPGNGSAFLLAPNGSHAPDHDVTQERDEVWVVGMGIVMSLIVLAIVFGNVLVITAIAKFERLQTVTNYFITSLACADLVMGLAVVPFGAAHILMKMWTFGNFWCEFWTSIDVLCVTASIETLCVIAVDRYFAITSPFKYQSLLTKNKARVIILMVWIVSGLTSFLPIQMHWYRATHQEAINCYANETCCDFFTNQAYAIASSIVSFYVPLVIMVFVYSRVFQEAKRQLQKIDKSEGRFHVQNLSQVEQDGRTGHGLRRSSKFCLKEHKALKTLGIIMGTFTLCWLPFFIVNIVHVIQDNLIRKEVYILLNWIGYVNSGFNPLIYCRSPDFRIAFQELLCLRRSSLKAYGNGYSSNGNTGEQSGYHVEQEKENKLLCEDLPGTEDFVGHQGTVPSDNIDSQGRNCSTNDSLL
UCH37 inh – inhibitors of human UCH37 deubiquitinase, primary screen, biochemical, Ub-AMC cleavage, fluorescence. Ubiquitin carboxyl-terminal hydrolase isozyme L5 (Homo sapiens), Q9Y5K5. purified proteasome/UCH37. inhibition, % (concentration not given with the values). actives 0.33% (n = 330,000);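 active = mean of two replicates above 20%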;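 note: 0% = compound-free wells with enzyme and 100% = wells lacking proteasome; stock transfer was 100 nL into about 20 µL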
Target sequence (Q9Y5K5 whole entry, looked up): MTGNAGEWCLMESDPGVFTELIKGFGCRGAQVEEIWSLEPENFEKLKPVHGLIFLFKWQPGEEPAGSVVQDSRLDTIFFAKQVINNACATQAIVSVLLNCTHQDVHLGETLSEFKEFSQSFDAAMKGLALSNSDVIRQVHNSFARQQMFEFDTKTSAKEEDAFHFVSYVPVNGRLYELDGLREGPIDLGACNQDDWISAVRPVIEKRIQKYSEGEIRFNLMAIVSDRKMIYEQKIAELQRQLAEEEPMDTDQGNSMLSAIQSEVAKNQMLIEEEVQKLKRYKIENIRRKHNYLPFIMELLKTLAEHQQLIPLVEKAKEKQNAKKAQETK
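Schedule: 30 min plus 25 min, room temperature / Material: human UCH37 within purified proteasomes / Technique: AMC fluorescence intensity at 355/460 nm / Buffer or medium: pH 7.4 Tris-HCl (50 mM) with ovalbumin, ATP-MgCl2, DTT / Controls: wells without proteasome as full block, compound-free enzyme plus substrate as uninhibited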
HNF4A DNA FP – change in binding of human HNF4A to DNA, primary screen, biochemical, fluorescence polarization, FITC-DNA. actives 0.3% (n = 360,000). activity change, % at 10 µM. 1 h. Hepatocyte nuclear factor 4-alpha (Homo sapiens), P41235. AID 1224865, 2016; in the data active = activity change above about 30%, passing the limit was not always enough;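 note: controls were the assay level and a saturating level of protein; the project sought stronger binding though the title names inhibitors; some compounds called inactive have numbers as strong as hits; positive values seem to mean higher polarization but the record does not say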
Ecoli growth – E. coli growth inhibition, primary screen, OD600. Escherichia coli growth, 23 h; hits give low values. OD600 absorbance (no concentration beside the values). actives 0.21% (n = 330,000);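 active = OD600 absorbance below the run mean of sample wells minus 3.6 SD, in any replicate, cut at about 0.56 in these data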;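 note: stock transfer was 300 nL into about 60 µL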
LANA-H2A inh – blockers of LANA interaction with H2A/H2B – biochemical, FP readout, HTS, primary screen; Protein LANA1 (Human herpesvirus 8 type P (isolate GK18)), Q9QR71; cell-free LANA-H2A/H2B peptide, fluorescence polarization; inhibition, % (test concentration not listed); actives 0.6% (n = 320,000); AID 2629, 2010; in the data active = inhibition mostly above about 10%, no sharp cut-off; inactive = mostly below about 6.7%;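 note: stock transfer was 7.5 nL into about 10 µL; 0% = median of vehicle wells and 100% = median of positive control wells; one replicate is shown; the record names a cut of 25% in any replicate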
FGF22 binding – binders of human FGF22 protein, primary screen, FGF22 synaptogenesis inhibitor project, biophysical, thermal shift, single point; actives 1.5% (n = 340,000); recombinant FGF22 thermal shift, SYPRO orange fluorescence; percent of sucrose octasulfate shift, DMSO zero; calls only at 9.99 µM; Fibroblast growth factor 22 (Homo sapiens), Q9HCT0;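 active = melting point raised past a set limit in the mean and every replicate; three in four hits are not shown here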
* marks the source's active call; other numbers are inactive results; i = inactive; x = not tested or not shown. This is a subset, so the mix of outcomes need not match the whole.

structure	ALR H2O2 inh	B2AR ag	UCH37 inh	HNF4A DNA FP	Ecoli growth	LANA-H2A inh	FGF22 binding
Cc1ccc(S(=O)(=O)N2CCCC2CNC(=O)C(=O)NC2CCCC2)cc1 (stereo unspecified)	-1.5	-3.9	-0.6	-2.8	0.703	-4.9	i
CCCCNC(=O)Nc1ncn[nH]1	-2.0	1.3	2.3	2.9	0.69	-5.1	i
OC(CSc1ccccc1Cl)CN1CCN(c2ccccc2F)CC1 (stereo unspecified)	-17.2	-8.6	4.6	-0.5	0.618	-2.0	x
O=C1C2CCCN2C(c2ccc(Br)cc2)N1c1ccc(F)cc1 (stereo unspecified)	-12.7	1.4	-0.9	1.4	0.774	-5.7	i
Cc1ccc(-n2c(C)cc(C=C3C(=O)CC(C)(C)CC3=O)c2C)cc1	-15.4	-1.4	4.4	0.7	0.724	-0.3	i
CC(C)C(=O)Nc1c2c(nc3ccccc13)N(C)CC2	-6.4	-0.9	-298.3	-0.5	0.71	-0.8	x
COC(=O)CNC(=O)C1Nc2ccc(OC(F)(F)F)cc2C2C=CCC12 (stereo unspecified)	-29.7	1.2	3.2	-3.6	0.718	0.6	i
O=C(OCCN1CCCC1=O)c1cc(F)c(F)c(F)c1F	-1.0	-4.3	-2.8	-3.1	0.67	-3.1	i
O=C(N/N=C\c1cc2c(cc1Cl)OCO2)c1cccs1	-0.8	-5.3	x	1.2	x	1.3	i
COc1ccccc1-c1csc2ncnc(Sc3nnnn3C)c12	-2.4	2.4	0.0	0.3	0.648	-7.1	i
COC(=O)c1ccc(CNC(=O)CSC(C)C(=O)Nc2cc(C)on2)cc1 (stereo unspecified)	-1.7	-0.8	-3.4	1.1	0.694	-6.5	i
Cc1cc(C)n(CCCNC(=O)c2ccc(C)c(S(=O)(=O)N3CCOCC3)c2)n1	x	9.1	1.8	-2.5	0.69	0.3	i
O=C(NCCCN1CCOCC1)c1ccc2c(c1)N(Cc1ccccc1)C(=O)c1ccccc1S2=O (stereo unspecified)	-1.1	-9.6	4.3	-3.4	0.688	-4.1	i
CCOC(=O)COc1cccc2c(=O)n(CC(=O)NCc3ccc4c(c3)OCO4)ccc12	x	14.5	-2.0	-1.4	0.71	7.2	i
Cc1ccc2c(C)c(C(=O)N(Cc3ccncc3)CC3CCCO3)oc2c1C (stereo unspecified)	x	16.5	0.3	1.0	0.695	-4.0	i
COc1ccc(-c2c(-c3cc(OC)cc(OC)c3)n(C)c3ccc(-c4ccc(SC)cc4)cc23)cc1	-6.7	-5.5	-17.5	0.3	0.721	-0.6	i
CC(Cc1ccccc1)N1CCCC1=O (stereo unspecified)	x	-0.2	x	-2.4	x	x	i
CCN(CC)S(=O)(=O)c1ccc(OC)c(NC(=O)COc2ccccc2[N+](=O)[O-])c1	-1.4	-3.3	-2.0	2.7	0.698	6.2	i
COc1cc(/C=C2/NC(=O)NC2=O)cc(Br)c1OCc1ccc(C(=O)O)cc1	0.0	7.7	4.1	0.4	0.664	4.1	i
CC1(C)CC(=O)C(/C=N/n2cnc3ccccc3c2=O)=C(O)C1	4.8	0.4	x	-5.1	x	-2.6	x
O=C(/C=C/c1ccc(F)cc1)NC(=S)NNC(=O)c1cccnc1	91.2*	8.9	4.7	-1.7	0.726	1.0	i
O=C(Cc1cccs1)N/N=C\c1ccc(O)cc1	98.1*	-3.4	x	0.9	x	8.2	x
O=C(OCc1ccccc1)/C(=C(\O)c1ccccc1Br)c1ccc(-c2ccccc2)cn1	-14.8	3.3	-15.1	-4.0	x	-1.7	i
CN(C(=O)COC(=O)c1cccnc1Cl)C1CCCCC1	-1.6	0.5	-0.5	2.9	0.666	6.3	i
CCCCNC(=O)COC(=O)c1cc2c(C)nn(-c3ccccc3)c2s1	0.9	-5.4	-7.0	1.3	0.792	-0.5	x
O=C(N/N=C/c1c(Cl)cccc1Cl)c1cccc(F)c1	-2.9	8.3	x	-1.4	x	-1.6	i
CCC(=O)NCCc1cc2ccc(C)c(C)c2[nH]c1=O	0.8	0.6	-4.6	2.2	0.743	-5.5	i
COc1ccc(/C=N/NC(=O)CCC(=O)Nc2ccccc2)cc1OC	-18.1	-1.9	x	1.3	x	-7.9	i
O=C(Nc1c2c(nn1-c1cccc(Cl)c1)CS(=O)(=O)C2)c1ccco1	0.7	-0.5	1.5	3.1	0.643	-1.8	i
CC(C)Oc1ccc(N2CC(C(=O)Nc3ccccc3F)CC2=O)cc1 (stereo unspecified)	x	-2.5	0.6	0.5	0.701	-7.0	x
O=C(O)c1ccccc1C(=O)c1cccc2ccccc12	x	4.0	3.5	4.0	0.701	2.1	i
O=C(N/C(=C/c1cccs1)c1nc2ccccc2[nH]1)c1ccccc1	x	1.9	-72.7	2.7	0.717	-0.5	x
CC(=O)N1CCc2cc(S(=O)(=O)NC(Cc3ccccc3)C(=O)Nc3cc(C)ccn3)ccc21 (stereo unspecified)	2.9	-1.0	-0.2	-0.6	0.689	4.7	i
COc1ccc(/C=N/NC(=O)C2(C)NC(C)(C)Cc3ccccc32)cc1 (stereo unspecified)	0.0	-4.2	x	-1.4	x	3.0	i
CN1CCC(N(C)CC(O)c2ccccc2)CC1 (stereo unspecified)	-1.9	1.6	2.1	2.2	0.669	-0.7	i
COc1ccc(S(=O)(=O)N2CCN(CC(=O)N3CCOCC3)CC2)cc1OC	-0.3	x	0.6	-2.1	0.71	-4.2	x
COc1ccccc1CCc1nnc(CCC(=O)NC(C)Cc2cccc(C)n2)o1 (stereo unspecified)	x	3.9	4.3	2.3	0.707	x	i
COc1ccc(C(CNC(=O)C(CCSC)NC(=O)c2ccccc2Cl)N2CCCC2)cc1 (stereo unspecified)	x	0.5	5.1	2.0	0.669	-2.3	i
O=C(NCc1ccccc1)c1c(O)c2ccccc2[nH]c1=O	-2.2	-1.9	2.6	0.7	0.68	0.9	i
CCc1nnc(NC(=O)c2cc(S(=O)(=O)N(C)c3ccc(OC)cc3)ccc2Cl)s1	2.1	5.8	-0.3	2.5	0.702	-0.2	i
Cc1cc(C)nc(SCC(=O)Nc2ccnc3ccccc23)n1	-7.7	-4.1	3.9	-1.1	0.729	1.8	i
CN(Cc1ccccc1)CC1CCCN(CCc2ccccc2F)C1 (stereo unspecified)	x	3.8	2.0	2.8	0.66	2.6	i
O=C(O)c1cccc(-n2c(/C=C/c3ccccc3)nc3ccccc3c2=O)c1	78.2*	16.8	9.1	-2.4	0.673	-3.4	i
COC(=O)c1ccccc1NC(=O)COc1ccccc1[N+](=O)[O-]	-4.9	-2.8	4.1	0.0	0.67	-4.1	i
O=C1OC(c2ccccc2)(c2cc(Br)c(O)c(Br)c2)c2ccccc21 (stereo unspecified)	x	6.2	4.8	1.6	0.693	x	i
NC(=S)c1ccc[n+]([O-])c1	x	-12.0	5.5	0.1	0.686	x	i
CCc1ccccc1NC(=O)C1c2ccccc2Oc2ccccc21	x	0.6	2.0	0.5	0.735	-6.4	x
CNc1ccc(Br)cc(C(=O)/C=C/c2ccc(OC)cc2)c1=O	54.5	-5.6	6.9	-4.8	0.69	4.0	x
COc1ccc(CCN(C(=O)/C=C/C(=O)O)C2CC(=O)N(c3ccccc3)C2=O)cc1 (stereo unspecified)	-5.1	-7.9	0.5	-1.1	0.667	0.8	i
Cc1ccccc1COc1ccc(/C=N/NC(=O)c2nnn(-c3nonc3N)c2CN2CCC(C)CC2)cc1	-4.4	-6.3	x	-0.7	x	-1.5	i
COc1ccc(/C=N/Nc2ncc(Br)cn2)c(OC)c1	-6.7	-16.0	x	7.5	x	-2.5	i
COCCCNC(=S)NNC(=O)c1cc(C2CC2)nc2ccccc12	32.8	1.7	2.8	2.5	0.636	0.0	i
COc1cccc(/C=N/NC(=O)CN2CC(c3ccccc3)CC2=O)c1O (stereo unspecified)	42.6	5.4	x	2.8	x	4.3	x
COC(=O)c1cc2ccsc2n1Cc1nc(-c2ccc(OC)cc2)oc1C	-0.9	2.0	4.1	1.7	0.72	-0.6	i
N/C(CS(=O)(=O)c1ccccn1)=N\OC(=O)c1ccc(Cl)cc1	0.6	0.6	2.2	-1.9	0.636	-6.1	i
COC(=O)C(C)(C)ONC(=O)Nc1ccccc1	-5.3	-6.4	5.3	-0.1	0.683	4.0	i
O=C(COc1cc(F)ccc1[N+](=O)[O-])Nc1cccc(S(=O)(=O)NC2=NCCC2)c1	-1.6	4.0	7.3	1.0	0.651	-2.6	i
COc1cc(N)c2ncccc2c1Cl	x	1.7	18.5	5.0	0.646	x	i
O=C1c2ccccc2C(=O)N1CN(C(=O)c1ccccc1[N+](=O)[O-])c1ccc(F)cc1	-4.4	-21.5	0.1	0.0	0.674	-4.0	i
Cc1ccccc1C(=O)Nc1ccnn1C1CCN(CCCc2ccccc2)CC1	-17.1	7.3	3.9	-1.6	0.726	-4.6	i

(listing goes on)
structure	ALR H2O2 inh	B2AR ag	UCH37 inh	HNF4A DNA FP	Ecoli growth	LANA-H2A inh	FGF22 binding
CCn1c(SCC(=O)NCc2ccccc2)nc2nc3c(cc2c1=O)CCCC3	-0.7	-4.8	4.4	-1.8	0.693	2.2	i
CCCCOC(=O)C(C)Sc1n[nH]c(=O)[nH]c1=O (stereo unspecified)	-6.8	-1.9	0.1	2.0	0.666	-1.4	i
Cc1ccc(CC(=O)Nc2cccnc2)cc1	2.0	-0.7	2.1	3.5	0.739	5.6	i
COc1c(O)c(O)c2oc(-c3ccccc3)cc(=O)c2c1OC	51.5	-19.8	2.3	-0.5	0.692	0.5	i
O=c1nc(Nc2ccc([N+](=O)[O-])cc2)[nH]c(=O)[nH]1	-3.4	3.8	2.2	0.6	0.673	1.7	i
Cc1cc(N2CCN(S(=O)(=O)c3ccc(Cl)c(Cl)c3)CC2)c2ccccc2n1	1.0	-13.2	2.0	1.6	0.644	6.4	i
COc1ccc(-c2nn(-c3ccccc3)cc2C(=O)Nc2nc(CC(C)=O)ns2)cc1	-3.1	-9.7	4.9	-2.0	0.695	-4.8	x
CCn1c(CNC(=O)c2ccccc2)nnc1SCC(=O)N1CCN(c2ccccc2)CC1	45.2	11.4	-0.6	0.7	0.731	1.1	x
CCOC(=O)c1cccc(OCC(O)CNCCOc2ccccc2F)c1 (stereo unspecified)	0.3	-2.4	-1.4	1.4	0.632	-10.5	i
O=C(CSc1nc(O)c(C2CCCCC2)c(=O)[nH]1)N1CCOCC1	15.1	4.3	-1.5	4.2	0.699	2.8	i
Cc1ccc(-n2cc(CN(C)CCc3cn[nH]c3)c(-c3cccc(C)c3)n2)cc1	-12.8	-2.8	-0.7	-0.3	0.644	-2.3	i
C/C(=N\NC(=O)c1ccc(CSc2nncn2C)cc1)c1ccc(Cl)cc1	21.1	18.4	x	3.1	x	-0.6	i
CC(C)(C)NC(=O)c1cccc(NC(=O)CSc2ccc(Cl)cc2)c1	-8.8	-1.4	x	-0.9	x	1.8	x
O=C(NC1CC2CCCC(C1)N2C(=O)Nc1cccc(F)c1)C1CC1 (stereo unspecified)	x	11.7	2.3	-1.6	0.617	-2.7	i
O=C(NCc1ccccn1)c1ccc(OC2CCN(Cc3ccc(Cl)s3)CC2)cc1	-0.3	-23.0	3.9	-1.1	0.673	0.2	i
